Compound activity (PubChem)
Rango-impB inh – prevents formation of the Rango-importin beta complex | hit rate 0.031% among 340,000 | AID 540263 | Potency, µM (highest dose often 92.2 µM), without a hit: at the top dose inhibition of complex formation | Q14974 | Rango CFP/YFP FRET sensor + importin beta, 45 min; active = rising FRET ratio curve, often small or poorly fitted; inconclusive = mostly compound fluorescence or quenching in the first reads; inactive = flat curves in all reads;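 also: potency is read from the fitted curve at half-maximal effect; 0% = DMSO wells and 100% = buffer wells lacking importin beta; nearly all actives have a fitted effect of over 15% in size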
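FRET biosensor Rango (snurportin 1 IBB between N-terminal EYFP and C-terminal Cerulean), 50 nM in PBS/1 mM DTT/0.02% Tween-20/0.1% BSA, preincubated 5 min RT with compound; 0.125 microM importin beta added, 45 min RT, CFP/YFP FRET ratio read.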
miR-21 FLuc – miR-21 reporter, rising signal; 340,000 tested, under 10 active; Potency, µM (highest dose often 38.3 µM), for inactives: at the highest dose reporter change, positive = more light; HeLa miR-21 FLuc reporter, luciferase, 48 h; active = well fitted rising curve with a large enough effect; inconclusive = small, poorly fitted or top-dose-only effect; inactive = no such curve, though single readings can be large or run the other way;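 also: % of control where 0% means no effect; miR-21 action dims this reporter so a rising signal means less miR-21 action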
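HeLa miR-21-FLuc reporter line, endogenous miR-21; 2000 cells/well in DMEM/10% FBS; compound titration up to ~40uM final, 48 h, 37 degree Celsius; luciferase detection reagent, 15 min lysis, CCD luminescence.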
Rango dissoc inh – prevents RanGTP from dissociating the Rango-importin beta complex; Potency, µM (series often up to 46.1 µM), for the others: at the top dose activity change, negative = inhibition; Biochemical FRET Rango-importin beta, RanGTP-induced dissociation; hit rate 0.071% among 340,000; AID 540253; active means falling FRET ratio curve, often poorly fitted, with flat reads before Ran was added; inconclusive means other falling curves, or compound fluorescence or quenching; inactive means flat or rising ratio curve;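 also: potency is read from the fitted curve at half-maximal effect; % of control where 0% means no effect; nearly all actives have a fitted effect of over 45% in size; -100% = wells without RanGTP and RCC1; the record marks most hits as doubtful in a second field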
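Recombinant Rango FRET biosensor (EYFP–snurportin 1 IBB–cerulean CFP10) at 0.1 uM premixed with 0.25 uM importin beta in PBS, 1 mM DTT, 0.02% Tween-20, 0.1% BSA. Compound added 5 min; RanGTP-RCC1 (0.6 uM Ran, 2 mM GTP, 0.2 uM RCC1) then triggers release, read at 45 min.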
GLA inh pH 4.5 – alpha-galactosidase A (human) inhibition, pH 4.5; P06280; purified enzyme, 4-MU-alpha-Gal fluorescence, pH 4.5; activity change, negative = inhibition, % at 105 µM; 230,000 tested, under 10 active; inconclusive = small, poorly fitted or top-dose-only inhibition, or a rising curve; inactive = flat fitted curve, though single readings scatter; no compound was filed as active;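 also: 0% = full activity with enzyme and -100% = basal without enzyme; dose as in the result columns while the protocol names 77 µM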
Target sequence (P06280 whole entry, looked up): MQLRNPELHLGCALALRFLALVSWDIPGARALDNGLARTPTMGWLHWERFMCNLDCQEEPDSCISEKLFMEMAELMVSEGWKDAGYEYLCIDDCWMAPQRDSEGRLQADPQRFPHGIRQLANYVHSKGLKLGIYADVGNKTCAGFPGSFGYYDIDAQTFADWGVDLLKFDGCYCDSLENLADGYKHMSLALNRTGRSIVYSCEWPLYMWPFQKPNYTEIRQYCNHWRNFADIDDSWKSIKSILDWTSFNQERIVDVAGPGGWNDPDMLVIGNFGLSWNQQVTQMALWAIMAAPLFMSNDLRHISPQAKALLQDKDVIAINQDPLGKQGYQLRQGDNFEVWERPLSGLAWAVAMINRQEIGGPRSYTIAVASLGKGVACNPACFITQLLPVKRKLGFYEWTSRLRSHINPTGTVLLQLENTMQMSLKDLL
* marks the source's active call; other numbers are inactive results; ? = inconclusive; · = not tested or not shown. These rows are one share of the data; the hit share may differ from the screen's.

SMILES	Rango-impB inh	miR-21 FLuc	Rango dissoc inh	GLA inh pH 4.5
CC(Sc1nc(N)cc(=O)[nH]1)C(=O)N1CCOCC1 (configuration not stated)	-0.5%	·	-1.1%	·
COc1ccc(C(=O)OCC(=O)c2c(N)n(C)c(=O)n(C)c2=O)cc1OC	4.0%	4.1%	1.7%	-6.3
CCC(=O)Nc1ccc(C(=O)N/N=C/c2cc(Br)c(OC)cc2OC)cc1	1.0%	-5.7%	1.8%	-6.2
COc1cc(OC)cc(-c2cc3cc(F)ccc3cn2)c1	1.3%	·	7.3%	·
CCn1c(SCC(=O)N2CCc3ccccc3C2)nc2sc(C)c(C)c2c1=O	-1.1%	-2.1%	8.5%	3.6
O=C(CN1CCc2ccccc2C1)NCc1ccco1	-3.2%	-1.7%	6.9%	10.7
O=C1c2ccccc2CCCC12N=NCC2c1cccc2ccccc12 (configuration not stated)	-1.2%	-1.4%	-25.3%	-11.9
COc1ccc(CCNC(=O)CSC(=O)c2ccccc2)cc1OC	-1.7%	-2.2%	-0.9%	5.3
CC(=O)c1c(C)[nH]c(C(=O)NCc2cccc(Cl)c2)c1C	-2.0%	1.5%	11.2%	-3.2
COc1cccc(-c2csc(N3CCN(C(=O)C4CCCCC4)CC3)n2)c1	0.8%	-1.6%	7.5%	-2.8
O=C(COC(=O)c1ccccn1)NCCCc1ccccc1	-0.7%	-3.2%	-0.9%	0.2
COc1ccc(CCNC(=O)CNC(=O)c2ccc3c(c2)OCO3)cc1OC	-4.7%	1.5%	19.7%	·
CCN(c1cccc(C)c1)S(=O)(=O)c1c(C)[nH]c(C)c1C(=O)N1CCCCC1	1.7%	4.1%	10.3%	·
Cc1ccc(C(=O)N2CCN(c3nc4ccccc4n3C)CC2)cc1	0.3%	-0.7%	2.1%	·
CCc1ccc(/C=C\C(=O)N2CCc3ccccc3C2)cc1	0.0%	-44.3%	-7.3%	0.1
Cc1ccc(S(=O)(=O)N2CCCCC2)cc1NC(=O)CNCc1ccco1	-0.5%	1.5%	15.9%	-1.3
CC(C)NC(=O)CN1C(=O)CSc2ccc(S(=O)(=O)N3CCCC3)cc21	0.8%	0.7%	?	·
Cc1ccc(/C(O)=C2/C(=O)C(=O)N(CC(=O)O)C2c2ccc([N+](=O)[O-])cc2)cc1 (configuration not stated)	-3.2%	-22.6%	-14.8%	·
O=C(NC1CCSC1=O)C1CC(=O)N(c2ccc(F)cc2)C1 (configuration not stated)	3.7%	0.2%	11.5%	·
O=[N+]([O-])c1cccc(COc2cccc(CN3CCOCC3)c2)c1	2.2%	·	18.6%	·
CCOc1ccc(C(=O)CCC(=O)N(CC)CC(=O)NCc2cccs2)cc1	-0.2%	·	3.7%	·
COc1ccc(C(=O)COC(=O)c2cc(=O)c3ccccc3o2)cc1	-0.6%	·	9.9%	·
CC(C(=O)Nc1nc(-c2ccc(F)c(F)c2)cs1)N1C(=O)C2CC=CCC2C1=O (configuration not stated)	-2.5%	·	-2.1%	·
O=C(CCn1c(=O)[nH]c2ccsc2c1=O)N1CCN(c2cccc(Cl)c2)CC1	-2.3%	10.1%	4.0%	2.8
O=C(Nc1ncc(Br)s1)C1CCCN1S(=O)(=O)c1cccc2cccnc12 (configuration not stated)	0.4%	-12.3%	-2.7%	0.5
CNC(=O)c1ccc(-c2ccc(OC)cc2)s1	-2.2%	-39.5%	-8.6%	22.6
Cc1cc(C)cc(-c2nnc(SCC(=O)Nc3cc(C)on3)o2)c1	-3.5%	·	-20.4%	·
CN(C)CCCN(C(=O)c1ccc(S(=O)(=O)N2CCCCCC2)cc1)c1nc2ccc(F)cc2s1	1.8%	-14.2%	-8.2%	·
Cc1nnc(NC(=O)CSc2nnc(CC(=O)Nc3ccccc3F)n2C)s1	6.2%	8.7%	-0.7%	·
CCN(C(=O)COC(=O)/C=C/c1c(C)nn(-c2ccccc2)c1C)C1CCS(=O)(=O)C1 (configuration not stated)	0.1%	-8.5%	?	1.6
O=C1N(c2cccc(Cl)c2)C(c2ccc(Cl)cc2)N2CCCN12 (configuration not stated)	0.0%	-6.1%	1.3%	0.5
CCN(CC)S(=O)(=O)c1cc([N+](=O)[O-])ccc1NNC(=O)Nc1ccccc1	-3.4%	-6.8%	-5.6%	-1.8
CC(=O)c1ccc(NC(=O)CCCCCn2nnc3ccccc3c2=O)cc1	-0.7%	-2.9%	17.4%	·
S=c1[nH]nc(-c2ccco2)n1/N=C/C=C/c1ccco1	-1.8%	-1.5%	-8.4%	-1.2
Cc1cc(C)c2c(=O)c(/C=C3\NC(=S)NC3=O)coc2c1	·	-0.5%	·	-6.5
CCC(=O)c1ccc(OCC(=O)OCC(=O)NC2CCCC2)cc1	3.4%	·	-16.2%	·
Cc1nn(C(C)C(=O)N2CCCCC2)c(=O)c2c1sc1ccccc12 (configuration not stated)	-2.0%	1.5%	28.7%	-1.1
COC(=O)c1ccccc1NC(=O)c1cc(-c2ccc(C)cc2)on1	1.0%	-5.1%	4.2%	6.3
O=C(CNC(=O)c1cccs1)NCCc1ccco1	?	·	-12.1%	·
CCOC(=O)c1c(N)sc(C(=O)N2CCCC2)c1C	0.1%	-4.0%	11.8%	5.6
Cc1nc(N2CCCCCC2)c2ccccc2n1	?	19.4%	-11.8%	·
O=C(CSc1ccccc1)Nc1ccc(Cl)c(S(=O)(=O)N2CCOCC2)c1	-1.4%	·	1.5%	·
COc1cccc(NC(=O)Nc2ccccc2C(N)=O)c1	0.8%	-6.6%	0.9%	2.1
O=C1c2cccnc2C(=O)N1Cc1ccc(S(=O)(=O)N2CCOc3ccccc32)cc1	3.2%	1.0%	5.3%	·
CCOCCCNC(=O)C(c1ccc(C)cc1)N1CCOCC1 (configuration not stated)	-2.8%	-13.9%	-1.4%	-10.0
CCOP(=O)(CC(C(C)=O)C(O)c1ccccc1)OCC (configuration not stated)	0.5%	2.4%	1.3%	6.4
O=C(c1cccc(S(=O)(=O)N2CCOCC2)c1)N(Cc1ccc(F)cc1)Cc1ccco1	-2.0%	-2.3%	17.5%	3.4
O=C(COC(=O)COc1ccc(Br)cc1)NCC1CCCO1 (configuration not stated)	-2.1%	·	1.2%	·
Cc1ccc(S(=O)(=O)N2CCC(C(=O)OCC(=O)NCCc3ccccc3)CC2)cc1C	4.6%	·	6.5%	·
COC(=O)c1ccc(CSc2nnc(NC(C)C)s2)o1	-0.1%	0.7%	-3.6%	-2.3

The list continues:
SMILES	Rango-impB inh	miR-21 FLuc	Rango dissoc inh	GLA inh pH 4.5
COc1ccc(C)cc1S(=O)(=O)N1CCN(S(=O)(=O)c2cc(C)ccc2OC)CC1	2.0%	-2.0%	-8.4%	2.5
COc1ccc(OC)c(S(=O)(=O)Nc2ccc3c(c2)N(C(C)=O)CCC3)c1	?	·	-14.5%	·
Cc1ccccc1C(=O)NC1CCN(Cc2ccccc2)CC1	0.4%	-1.8%	5.2%	4.6
COc1ccc(-c2[nH]ncc2CN2CCN(C(=O)c3ccco3)CC2)cc1F	1.1%	-7.8%	-1.6%	4.4
O=S(=O)(Nc1ccc(-c2ccc3nncn3n2)cc1)c1ccccc1Cl	-2.2%	·	?	·
CCC1CCCCN1C(=O)CSc1nnc(-c2ccc3c(c2)OCCO3)o1 (configuration not stated)	0.0%	-12.4%	-14.4%	-3.7
NC(=O)COC(=O)c1cc(-c2ccco2)nc2ccccc12	?	-7.5%	?	10.3
COc1ccccc1NC(=O)CCc1c(C)nc2c(-c3ccc(F)cc3)c(C)nn2c1C	0.6%	0.8%	3.1%	8.3
CC(=O)OCC1=C(C(=O)O)N2C(=O)C(NC(=O)CC(C)c3ccccc3)C2SC1 (configuration not stated)	-3.0%	·	0.7%	·
CCOC(=O)c1c(-c2ccccc2)oc2cc(CN(C)C)c(O)c(CN(C)C)c12	3.8%	·	-13.9%	·
N#Cc1cc([N+](=O)[O-])ccc1NC(=O)COC(=O)CCC1CCCCC1	·	0.6%	·	-3.9
CCOC(=O)c1c(/N=C/N(C)C)sc2c1CCC2	-4.1%	-10.4%	5.7%	1.7
c1ccc(C2=NC(c3ccccc3)N=C(c3ccccc3)N2)cc1	-3.7%	-7.4%	-5.2%	-12.9
O=C(CO/N=C/c1ccccc1O)N1CCc2ccccc21	-2.5%	-20.1%	-7.5%	-11.5
C/C(=N\NC(=S)NCCc1ccccc1)c1cccc(Br)c1	5.5%	1.7%	-13.2%	5.3
Cc1ccc(OCC(=O)Nc2ccc(F)cc2)cc1	0.3%	-51.6%	-5.4%	-16.1
N#CC1(C#N)CC(C=O)=C(N)C1(C#N)CC(=O)c1ccc(F)cc1 (configuration not stated)	?	-0.8%	?	1.1
CCN(CC)C(=O)C1CCN(S(=O)(=O)c2ccc3c(c2)CCCN3C(=O)C2CCC2)CC1	11.3%	4.5%	1.3%	·
CCOC(=O)c1ccc(N(CC2CO2)S(=O)(=O)c2ccc(C)cc2)cc1 (configuration not stated)	-0.7%	·	0.1%	·
COc1ccc(/C(N)=N/OC(=O)Oc2ccccc2)cc1	3.2%	-4.1%	-16.6%	-0.4

Entries of single compounds as entered above:
Record of CCOC(=O)c1ccc(N(CC2CO2)S(=O)(=O)c2ccc(C)cc2)cc1 (configuration not stated) → Rango-impB inh: -0.7%; miR-21 FLuc: ·; Rango dissoc inh: 0.1%; GLA inh pH 4.5: ·
Record of COc1ccc(/C(N)=N/OC(=O)Oc2ccccc2)cc1 → Rango-impB inh: 3.2%; miR-21 FLuc: -4.1%; Rango dissoc inh: -16.6%; GLA inh pH 4.5: -0.4

(listing goes on)
SMILES	Rango-impB inh	miR-21 FLuc	Rango dissoc inh	GLA inh pH 4.5
CCOC(=O)c1nccnc1C(=O)Nc1ccc(C(F)(F)F)cc1	1.0%	1.5%	19.6%	-5.1
Cc1noc(C)c1NC(=O)Nc1ccc2c(c1)C(=O)N([C@H](C)CO)C[C@H](C)[C@@H](CN(C)C(=O)Nc1ccc(C(F)(F)F)cc1)O2	?	·	6.3%	·
CCOc1ccccc1Nc1nc(N)nc(CSc2nncn2C)n1	0.4%	-7.3%	11.0%	3.2
Cc1cc(Cl)ccc1NC(=O)CCN1C(=O)NC(C)(C)C1=O	0.1%	·	9.0%	·
O=C(Nc1cc(Cl)ccc1Cl)C1CC(=O)N(c2ccccc2)C1 (configuration not stated)	5.1%	1.9%	-6.0%	-6.3
Cc1cc(C)c(S(=O)(=O)N2CCN(C(=O)c3cc4ccccc4o3)CC2)c(C)c1	1.7%	·	-14.8%	·
S=C(NCc1ccccc1)N1CCN(C2CCCCC2)CC1	0.1%	0.6%	24.9%	-2.2
COCCCNC(=O)/C(=C\c1cccn1C)NC(=O)c1cccs1	?	-4.0%	-6.8%	-19.7
O=C(c1ccc(Cl)c(F)c1F)N1CCOCC1	3.6%	-3.6%	15.1%	9.1
CCCn1c(SCC(=O)NC)nc2sc3c(c2c1=O)CCC3	-1.1%	1.5%	-5.2%	·

Grouped by structure, those above with a cyano group.
SMILES	Rango-impB inh	miR-21 FLuc	Rango dissoc inh	GLA inh pH 4.5
N#Cc1cc([N+](=O)[O-])ccc1NC(=O)COC(=O)CCC1CCCCC1	·	0.6%	·	-3.9
N#CC1(C#N)CC(C=O)=C(N)C1(C#N)CC(=O)c1ccc(F)cc1 (configuration not stated)	?	-0.8%	?	1.1

Next section.
SMILES	Rango-impB inh	miR-21 FLuc	Rango dissoc inh	GLA inh pH 4.5
Nc1c(C(=O)O)nnn1Cc1ccccc1	5.7%	-2.8%	?	13.5
Cc1ccc(N/C=C2\CCCCC2=O)nc1	2.3%	-23.4%	0.6%	-16.3
C[C@@H](CN1C2=NC[C@H](Cc3ccccc3)N2C[C@H]1Cc1ccc(O)cc1)NC(=O)CCC1CCCCC1	-1.3%	16.3%	-5.6%	-4.0
Cc1cccc(Nc2nc(-c3ccc(O)c(O)c3)cs2)n1	-0.2%	-81.7%	4.9%	·
CCOC(=O)COn1c(-n2nc(C)cc2C)nc2ccccc2c1=O	0.4%	5.4%	1.8%	·
CN1CCN(C(=O)C2CCN(S(=O)(=O)c3ccc4c(c3)oc(=O)n4C)CC2)CC1	0.5%	-9.3%	7.4%	2.7
O=C(NCC(c1ccco1)N1CCc2ccccc2C1)c1cccc(F)c1 (configuration not stated)	0.8%	·	2.6%	·
